Screening data: PubChem BioAssay, National Center for Advancing Translational Sciences (NCATS)
VDR inh = Inhibitors of the vitamin D receptor (VDR): qHTS; Vitamin D3 receptor (Homo sapiens), P11473; VDR-SRC2-3 peptide fluorescence polarization, 2 h; Potency, µM, without a hit: max response, negative = inhibition, actives largely listed as inhibitors; 400,000 compounds, 0.93% hits; AID 504847, 2011; active means well fitted inhibition curve with a large enough effect; inconclusive means small, poorly fitted or top-dose-only effect, or another doubt; inactive means no such curve, though single readings can be large or run the other way; further: series mostly up to about 120 µM
Target sequence (P11473 whole entry, looked up): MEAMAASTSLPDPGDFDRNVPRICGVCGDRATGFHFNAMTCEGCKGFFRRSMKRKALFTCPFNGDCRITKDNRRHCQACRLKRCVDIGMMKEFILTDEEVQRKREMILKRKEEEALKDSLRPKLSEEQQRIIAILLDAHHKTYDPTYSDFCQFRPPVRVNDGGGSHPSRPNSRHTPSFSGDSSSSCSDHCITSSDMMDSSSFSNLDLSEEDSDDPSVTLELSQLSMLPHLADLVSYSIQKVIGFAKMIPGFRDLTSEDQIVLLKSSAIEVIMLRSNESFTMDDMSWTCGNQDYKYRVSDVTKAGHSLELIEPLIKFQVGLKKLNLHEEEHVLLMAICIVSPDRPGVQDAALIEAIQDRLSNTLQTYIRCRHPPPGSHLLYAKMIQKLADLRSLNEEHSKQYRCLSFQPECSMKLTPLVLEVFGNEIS
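Fluorescence polarization assay measuring small-molecule disruption of VDR binding to the coregulator peptide SRC2-3. Compounds were pin-transferred (23 nl) into the reagent mix and incubated 2 h at room temperature before reading.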
* marks the source's active call; other numbers are inactive results; ? = inconclusive; & = joins results of further samples; ! = not confirmed by another sample. On the % scale 0 is the no-effect control and ±100 the full control effect; potency means the concentration at half of the fitted maximal effect. Not all compounds are listed (hit frequency here may not be typical).

VDR inh | structure
-3.8% | Cc1ccc2c(c1)N(CCCC(=O)NCC1COc3ccccc3O1)C(=O)CO2 (stereo not drawn)
-0.9% | CC(C)c1ccc(/C=C2\CC/C(=C\C=N\N(C)C)C2=O)cc1
4.0% | CCOC(=O)C1CCCN(Cc2cc(Br)ccc2OC)C1 (stereo not drawn)
-29.2% | CC(C)c1c(O)ccc2c1CCC1[C@@](C)(CO)CCC[C@@]21C (stereo partly drawn)
7.5% | COc1ccc(-c2cnc(N)nc2-c2ccc(OCc3ccccc3)cc2O)cc1
-8.9% | CC(=O)c1cccc(NC(=O)Oc2ccccc2)c1
2.4% | CC(=O)c1cccc(NC(=O)C2CCCN(S(=O)(=O)c3ccc(F)cc3)C2)c1 (stereo not drawn)
-3.8% | CCCn1c(=O)sc2cc(NC(=O)c3ccccc3OCC)ccc21
-3.0% | Cc1ccc(C)c(NC(=O)CCC(=O)OC(C(=O)c2ccccc2)c2ccccc2)c1 (stereo not drawn)
-8.4% | COc1cccc(NC(=O)CN(C)C(=O)CCCc2c[nH]c3ccccc23)c1
29.4%&7.1% | CCOC(=O)C1CCN(C(=O)c2ccc3c(=O)n4nc(Nc5cc(C)ccc5C)sc4nc3c2)CC1
10.7% | Cc1[nH]n(-c2ccccc2)c(=O)c1C=Nc1ccc2[nH]c(=O)[nH]c2c1
-19.6% | COc1cccc(C(=O)Nc2nc(-c3ccccc3)c(-c3ccccc3)o2)c1
-5.0% | CCOC(=O)c1ccc(N2C(=O)c3n[nH]c(-c4ccco4)c3C2c2cccc(OC)c2)cc1 (stereo not drawn)
-3.4% | OCCN1CCN(CCC=C2c3ccccc3Sc3ccc(Cl)cc32)CC1

3 of these compounds, reformatted.
structure	VDR inh
CC(=O)c1cccc(NC(=O)C2CCCN(S(=O)(=O)c3ccc(F)cc3)C2)c1 (stereo not drawn)	2.4%
CCCn1c(=O)sc2cc(NC(=O)c3ccccc3OCC)ccc21	-3.8%
Cc1ccc(C)c(NC(=O)CCC(=O)OC(C(=O)c2ccccc2)c2ccccc2)c1 (stereo not drawn)	-3.0%

The list continues:
VDR inh | structure
-17.3% | Cn1c(-c2ccccc2)cnc1NCc1cc(Cl)ccc1O
0.6% | Cc1ccc(NC(=O)CSCC(=O)N2CCCc3ccccc32)cc1
13.6% | O=C(NCCc1csc(-c2ccc(F)cc2)n1)c1cccs1
-5.5% | CC(Sc1nnc(-c2cccs2)n1-c1ccccc1)C(=O)NCc1ccc2c(c1)OCO2 (stereo not drawn)
-16.1% | C=CCNC(=S)N(Cc1ccccc1)Cc1ccc(F)cc1
-2.0% | CC1(C)CC(NC(=O)C(F)(F)F)CC(C)(C)N1OC(=O)c1ccco1
8.4% | Cc1cc(C)cc(NC(=O)c2cc(CN3CCCC3)on2)c1
-7.5% | COc1ccccc1N(Cc1ccccc1)S(=O)(=O)c1cccc(C(=O)Nc2cc(C)ccn2)c1
-24.8% | Cc1ccc(N2C(=O)C(Cl)=C(N3CCCCCC3)C2=O)cc1
-11.2% | Cc1cc2cc(CNC(=O)Nc3cccc(Cl)c3)ccc2n1C
-6.1% | C[C@H](NC(=O)[C@H](Cc1ccccc1)n1c(=O)[nH]c2ccccc2c1=O)C(=O)N1CCC[C@H]1C(=O)O
4.9% | CCCCC(=O)Nc1nnc(CCc2ccccc2)s1
-0.2% | Cc1ccc(CNC(=O)CSc2n[nH]c(-c3ccc(F)cc3)n2)cc1
-17.2% | CCOc1ccccc1N1CC(C(=O)Nc2ccc(C(=O)O)cc2)CC1=O (stereo not drawn)
-12.3% | Cn1c2c(c3cnc4cc(Cl)ccc4c31)CNCC2

The list goes on.
VDR inh | structure
9.2% | O=C(Nc1cccc(O)c1)c1cc(-c2ccco2)on1
3.0% | O=C(CSc1nnc(Cc2ccsc2)o1)c1ccccc1
6.6% | O=S(=O)(N1CCCCC1)n1c(Cc2ccccc2)nc2ccccc21
-0.6% | COc1ccc(NC(C)=O)cc1NC(C)C(=O)Nc1cccc2ccccc12 (stereo not drawn)
-13.0% | O=C(NNC(=O)c1ccc(=O)[nH]c1)c1ccc(NS(=O)(=O)c2cccs2)cc1
13.5% | Cc1ccc(OCCn2c(=O)cnc3ccccc32)cc1
? | Oc1c(Br)cc(Br)cc1/C=N/c1nc2c(s1)CCCC2
? | CCn1c(CSc2ncn[nH]2)nc2cc(C(=O)O)ccc21
-14.1% | Cc1ccccc1-n1c(=O)n(Cc2ccccc2)c(=O)c2[nH]cnc21
-8.6% | CC(C)c1cc(C(=O)N2CCCC(CCC(=O)NCc3ccccc3F)C2)n(C)n1 (stereo not drawn)
-11.2% | COCCNC(=O)[C@@H]1CCCN1S(=O)(=O)c1cccc2cccnc12
-24.1% | COc1ccc(CSc2cccc3cccnc23)cc1[N+](=O)[O-]
0.4% | CC(=O)c1cccc(NC(=O)Cn2c(=O)oc3cc(S(=O)(=O)NC4CCCC4)ccc32)c1
15.2% | CCOC(=O)c1c(C)[nH]c(/C(C)=N/O)c1C
-5.3% | O=[n+]1c2c(n([O-])c3cc(F)ccc31)CCCC2

New compounds follow:
VDR inh | structure
4.9% | O=[N+]([O-])c1ccc(Nc2nc(N/N=C\c3ccc4c(c3)OCO4)nc(N3CCCCC3)n2)cc1
1.1% | CCn1c(=O)cc(OCC(=O)N2CCN(c3ccccc3OC)CC2)c2ccccc21
-11.8% | CCOC1CC(C)(C)NC(=S)N1 (stereo not drawn)
0.6% | OC1CCCN(CC(O)COC(c2ccc(F)cc2)c2ccc(F)cc2)C1 (stereo not drawn)
-0.3% | C=C(C)CN(CC)Cc1c(C(=O)N(C)CCCC)nc2ccccn12
3.4% | NC(=O)C1CCN(CC(=O)Nc2ccc(S(=O)(=O)N3CCOCC3)cc2)CC1
0.6% | COc1ccccc1NC(=O)Cn1c(=O)n(Cc2ccccc2)c(=O)c2sc3ccccc3c21
-8.0% | C/C=C/C(=O)C[C@H]1CC[C@@H](C)[C@@H](CCO)O1
2.1% | Cn1c(C(=O)NCCC2=CCCCC2)cc2c(=O)n3ccccc3nc21
12.0% | COc1cccc(-c2noc(C3CCCN(C(=O)c4cccc(F)c4)C3)n2)c1 (stereo not drawn)
1.8% | O=C(Nc1cc([N+](=O)[O-])ccc1Cl)C(Sc1ccccc1)c1ccccc1 (stereo not drawn)
11.6% | Cn1c(=O)[nH]c(=O)c2[nH]c(N(Cc3ccccc3)Cc3ccccc3)nc21
-26.0% | Cc1cccc(N2CC(C(=O)Nc3nnc(SCc4cccnc4)s3)CC2=O)c1 (stereo not drawn)
-13.4% | CCOC(=O)c1c(C)n(C)c2ccc(OC)c(NS(=O)(=O)CC)c12
-21.5% | FC(F)(F)Oc1ccc(NC(=S)NCc2ccccc2)cc1

Three entries picked at random from those above:
VDR inh | structure
2.1% | Cn1c(C(=O)NCCC2=CCCCC2)cc2c(=O)n3ccccc3nc21
1.8% | O=C(Nc1cc([N+](=O)[O-])ccc1Cl)C(Sc1ccccc1)c1ccccc1 (stereo not drawn)
1.1% | CCn1c(=O)cc(OCC(=O)N2CCN(c3ccccc3OC)CC2)c2ccccc21

The list goes on.
VDR inh | structure
3.3% | CS(=O)(=O)Nc1ccc(C(=O)NCCSCc2ccco2)cc1
-1.4% | Cc1c(C)c2ccc(OC3CCCCC3=O)cc2oc1=O (stereo not drawn)
-4.6% | COc1ccc(CNC(=O)CCC(=O)n2ncc3cc(C)ccc32)cc1
13.0% | C=CCOc1cccc(/C=N/NC(=O)C(OC)c2ccccc2)c1 (stereo not drawn)
-4.7% | Cc1cccc(N2C(=O)CC(N(C(=O)c3ccco3)c3cccc(C)c3)C2=O)c1 (stereo not drawn)
-7.4% | O=C1NCCCC2c3c(cc(Br)c(O)c3Br)OC12N1CCCCC1 (stereo not drawn)
-9.1% | O=C(Nc1ccccc1N1CCN(C(=O)c2ccc(Cl)cc2)CC1)c1cccc([N+](=O)[O-])c1
0.4% | COc1ncc2nc(-c3ccccc3)c(=O)n(Cc3cccs3)c2n1
-12.5% | CCOC(=O)CNC(=O)C(CC(N)=O)NC(=O)OC(C)(C)C (stereo not drawn)
0.9% | CCN(CC)S(=O)(=O)c1ccc2[nH]c(=O)[nH]c2c1
6.7% | CC[C@H](C)[C@H](NC(=O)[C@H](CCCNC(=N)N)NC(=O)[C@@H]1CCCN1C(=O)[C@H](Cc1ccccc1)NC(=O)[C@H](Cc1cnc[nH]1)NC(=O)[C@H](CCCNC(=N)N)NC(=O)[C@@H](NC(=O)[C@H](C)NC(=O)[C@H](CCC(=O)O)NC(=O)[C@H](CC(N)=O)NC(=O)[C@@H](N)CCCCN)C(C)C)C(=O)N[C@@H](Cc1c[nH]c2ccccc12)C(=O)N[C@@H](CC(C)C)C(=O)O
-9.3% | Cc1noc(C)c1S(=O)(=O)N1CCCC(C(=O)Nc2ccc(Cl)cn2)C1 (stereo not drawn)
-11.9% | Oc1ccc2ccc3[nH]cnc3c2c1
13.5% | COc1ccc(C2(CNC(=O)/C=C\c3ccco3)CCCC2)cc1OC
39.8µM*! | CCCCCCCCCCC1=C(C)C(=O)C(OC)=C(OC)C1=O

Next part
VDR inh | structure
? | NC(N)=NS(=O)(=O)c1ccc(NC(=S)NC(=O)/C=C/c2ccccc2)cc1
? | COC(=O)[C@@]1(Cc2ccccc2)[C@@H]2C(=CC(=O)[C@H]2CC(=O)C(=O)N(C)C)CN1C(=O)c1ccccc1
15.0% | CCN1CCN(C(CNS(=O)(=O)c2ccc(C)cc2)c2ccccc2)CC1 (stereo not drawn)
4.2% | Cc1ccc(C(=O)Oc2cccnc2)cc1[N+](=O)[O-]
-6.4% | COc1ccc(Br)cc1C(=O)NC(=S)Nc1cc(-c2nc3ccccc3[nH]2)ccc1C
7.1% | COc1cc2nc(CN3CCOCC3)n(CC(=O)NCC(F)(F)F)c(=O)c2cc1OC
1.0% | CCN(C[C@H]1N[C@@](C)(C(=O)OC)[C@H]2C(=O)N(C)C(=O)[C@@H]12)C(=O)Nc1ccc(C(F)(F)F)cc1
-13.4% | CC1(C)CC(=O)C=C(NCc2ccncc2)C1
5.7% | Cc1ccc(NC(=O)C2C3C=CC4(O3)C2C(=O)N(CCCN2CCOCC2)C4C(=O)NC2CCCCC2)cc1Cl (stereo not drawn)
-3.7% | CC(=O)N[C@@H]1C(O[C@H]2O[C@H](C(=O)O)C(O)[C@H](O)[C@H]2O)[C@H](O)[C@@H](CO)O[C@H]1O[C@@H]1C(C(=O)O)O[C@@H](O[C@H]2[C@H](O)[C@@H](CO)OC(O)[C@@H]2NC(C)=O)[C@H](O)[C@H]1O (stereo partly drawn)
7.7% | O=C(Nc1cc(=O)[nH]c(=O)[nH]1)c1cc(Cl)ccc1Cl
12.7% | C=CCNCCCCOc1c(Cl)cc(C)cc1Br
4.4% | CCCC1=Nc2cc(C(=O)N3CCC(C(N)=O)CC3)ccc2Sc2ccccc21
-2.2% | COCCSc1nnc(NC(=O)C2CC(=O)N(c3ccccc3)C2)s1 (stereo not drawn)
-18.5% | Cc1cccc(C)c1NC(=O)C1NC(=O)CC1c1ccccc1 (stereo not drawn)

Carrying on:
VDR inh | structure
13.1% | Cc1nc(N2CCOCC2)c2c(C(=O)NCc3cccc(Cl)c3)c(C)oc2n1
-27.0% | CCN(CC)S(=O)(=O)c1cc(C)ccc1SC
-15.6% | CC(C)(C)c1nn2cnnc2n(/N=C/c2ccc(O)cc2)c1=O
-5.4% | CC1CCN(C(=O)c2ccc(NS(=O)(=O)c3cccs3)cc2)CC1
3.1% | COc1ccccc1CNC(=O)C1(c2cccs2)CCOCC1
-10.3% | Cc1cccc(-c2nc(CN3CCN(C(=O)C4CCCO4)CC3)cs2)c1 (stereo not drawn)
-13.8% | O=C(NCc1cccc(C(F)(F)F)c1)C1CC(c2cccc(F)c2)=NO1 (stereo not drawn)
-4.2% | O=S(=O)(Nc1ccccn1)c1cccs1
16.9% | CCCc1ccc(C(=O)NC(=O)c2ccccc2O)cc1
-7.9% | C=CCn1c(SCC(=O)NC2CC2)nnc1-c1cccc(OC)c1
-17.8% | CCOC(=O)c1c(C)[nH]c(C(=O)OCC(=O)NCc2ccc(F)cc2)c1C
5.0% | Cc1cc(N(CN2CCCC2=O)C(=O)c2ccc(OC(C)C)cc2)no1
20.3% | COCCN(C(=O)CNC(=O)c1ccco1)C(C(=O)NC1CCCCC1)c1cccc(OC)c1 (stereo not drawn)
-21.5% | CC(C)CC(NC(=O)C(COCc1ccccc1)NC(=O)OC(C)(C)C)C(=O)NN (stereo not drawn)
5.0% | CCC(C)(C)NC(=O)C(c1ccc(OC)cc1)N(CCOC)C(=O)CCC(=O)Nc1nccs1 (stereo not drawn)

Quoted from the listing:
VDR inh with CC(C)CC(NC(=O)C(COCc1ccccc1)NC(=O)OC(C)(C)C)C(=O)NN (stereo not drawn) → -21.5%
VDR inh with Cc1cccc(-c2nc(CN3CCN(C(=O)C4CCCO4)CC3)cs2)c1 (stereo not drawn) → -10.3%
VDR inh with COCCN(C(=O)CNC(=O)c1ccco1)C(C(=O)NC1CCCCC1)c1cccc(OC)c1 (stereo not drawn) → 20.3%
VDR inh with C=CCn1c(SCC(=O)NC2CC2)nnc1-c1cccc(OC)c1 → -7.9%

Following part:
VDR inh | structure
-23.4% | COc1ccc(Cc2nc3ccc(C(=O)NCC4COCCO4)cc3o2)cc1 (stereo not drawn)
-6.4% | Nc1c(C(=O)NCc2ccco2)c2nc3ccccc3nc2n1CCc1ccccc1
-11.3% | Cc1ccc(NS(=O)(=O)c2c(C(=O)N3CCCCCC3)c(C)n(C)c2C)cc1C
3.3% | Cn1c(=O)c2[nH]cnc2n(-c2ccccc2)c1=O
-26.3% | CCOC(=O)c1c(C)n(-c2ccccc2)c2ccc(OC(=O)c3ccc(OCC)c(OCC)c3)cc12
-2.0% | CCn1c(Cc2ccccc2)nnc1SC(C)C(=O)NC1CC1 (stereo not drawn)
-3.1% | Cc1ccc(NC(=S)N(CCCN2CCOCC2)Cc2cccs2)c(C)c1
-11.9% | Cc1ccc(C(=O)O)cc1S(=O)(=O)N1CCCC1
6.8% | O=C(Cc1ccccc1)N1CCC(C(=O)N2CCN(c3ccc(F)cc3)CC2)CC1
-4.0% | Cc1cc(=O)oc2cc(NC(=O)CCC(=O)O)ccc12
